Screens from PubChem.
Ecoli rRNA inh: inhibits bacterial ribosomal RNA function over humanized ribosomes | GFP signal change (wild-type ribosome), % (no concentration beside the values) | 1.6% of 350,000 active | E. coli WT GFP vs humanized-ribosome RFP mutants, fluorescence, 24 h; hits give low values; DMSO median 0, no signal -100 | AID 720706;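 active = significant combined selectivity score with lowered wild-type GFP, culture density cut under 30%, mutant RFP and density less affected; inactive = any of these conditions unmet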; also: one replicate is shown; some compounds called inactive have numbers as strong as hits
Ecoli rRNA inh OD600: second read-out of Ecoli rRNA inh, no call of its own (marks repeat the call); OD600 change, %; measured here: OD600 growth;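 optical density of the mix in the first replicate; 0 = DMSO median and -100 = no signal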
Ecoli rRNA inh RFP: second read-out of Ecoli rRNA inh, no call of its own (marks repeat the call); RFP signal change, %; measured here: RFP humanized mutant strains;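 first replicate; 0 = DMSO median and -100 = no signal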
The depositor's hits bear a star; & = joins results of further samples. The list is partial, so the mix of outcomes need not match the whole.

Order of results: Ecoli rRNA inh, Ecoli rRNA inh OD600, Ecoli rRNA inh RFP
CCCCn1c(N)c(N(CCOC)C(=O)CCS(=O)(=O)c2ccc(C)cc2)c(=O)[nH]c1=O
→ 2, 3, -0.2
COc1cccc(C(=O)N2CCC2(C)C(=O)NC(C)C)c1 (stereo unspecified)
→ 5, 14, -0.6
COc1ccc(NC(=O)N(C)C[C@@H]2Oc3ccc(NC(=O)Cc4cn(C)c5ccccc45)cc3CC(=O)N([C@@H](C)CO)C[C@H]2C)cc1
→ -1, -6, -1.9
Cc1ccc(S(=O)(=O)N(C)C[C@H]2OCCCC[C@@H](C)Oc3ccc(NC(=O)Nc4ccc(C(F)(F)F)cc4)cc3C(=O)N([C@@H](C)CO)C[C@H]2C)cc1
→ 5, 7, -2.1
CCCNC(=O)N1[C@@H](CO)[C@@H](c2ccccc2)C12CN(C(=O)CC1CC1)C2
→ 2, 10, -3.3
OC[C@@H]1[C@@H](c2ccc(-c3ccccc3F)cc2)[C@@H]2CN(Cc3cccnc3)CCCCN12
→ 0, -10, 12
COCC(=O)N(C)C[C@H]1Oc2cc(-c3ccncc3)ccc2S(=O)(=O)N([C@H](C)CO)C[C@H]1C
→ 1, -2, -1.0
Cc1ccccc1-c1cnc2c(c1)C(=O)N([C@@H](C)CO)C[C@@H](C)[C@@H](CN(C)Cc1cccnc1)O2
→ -2, -5, -1.4
C[C@@H]1CN([C@H](C)CO)C(=O)Cc2cc(NS(C)(=O)=O)ccc2O[C@@H]1CN(C)Cc1ccc(-c2ccccc2)cc1
→ -56, -77, -15
CN(C)C(=O)c1ccc(-c2ccc([C@H]3[C@@H](C#N)N(C(=O)C4CCCCC4)[C@H]3CO)cc2)cc1
→ -4, -3, 2.5
OC[C@@H]1[C@@H](c2ccccc2)C2(CN(CC3CC3)C2)N1Cc1cncnc1
→ 2, 5, -2.4
C[C@@H]1CN([C@H](C)CO)S(=O)(=O)c2ccc(C#Cc3ccc(F)cc3)cc2O[C@@H]1CN(C)S(C)(=O)=O
→ -7, -17, 7.5
C[C@@H]1CN([C@H](C)CO)C(=O)Cc2cc(NS(C)(=O)=O)ccc2O[C@H]1CN(C)CC1CCCCC1
→ -1, 2, -3.7
CO[C@@H]1CN(C)C(=O)c2cc(NC(=O)C3CC3)ccc2OC[C@@H](C)N(C(=O)C2CCCCC2)C[C@H]1C
→ 2, 9, 1.6
O=C(N[C@@H]1C=C[C@H](CC(=O)N2CCCCC2)O[C@@H]1CO)c1ccccn1
→ 3, 7, 1.6
COc1ccc(-c2cnc(C(O)c3ccc(C(C)(C)C)cc3)[nH]2)cc1 (stereo unspecified)
→ -23, -64, 16
CC(C)C(=O)Nc1ccc2c(c1)C(=O)N(C)[C@@H]1CC[C@H](CC(=O)NCCc3ccccc3)O[C@H]1CO2
→ 5, 10, 1.7
COc1ccc(NC(=O)N[C@@H]2CC[C@H](CCn3cc(-c4ccccc4)nn3)O[C@H]2CO)cc1
→ -3, -4, -1.4
CCOC(=O)C1=CCN(S(=O)(=O)c2ccc(Cl)cc2)C1c1ccc(Cl)c(Cl)c1 (stereo unspecified)
→ 2, 5, -0.1
O=C(Cc1ccccn1)N1CC2(C1)[C@H](c1ccccc1)[C@@H](CO)N2C(=O)c1ccccc1
→ -1, 3, -3.2
COc1ccccc1NC(=O)N[C@H]1CC[C@H](CC(=O)N[C@@H](C)c2ccccc2)O[C@@H]1CO
→ 0, 8, -1.1
NCC[C@H]1CC[C@H](NC(=O)NC2CCCCC2)[C@@H](CO)O1
→ 4, 12, 0.4
COc1cccc(-c2ccc3c(c2)[C@H]2[C@H](CCN2C(=O)c2cccc(F)c2)[C@@H](CO)N3)c1
→ -14, -54, 7.9
C[C@H](NC(=O)C[C@@H]1CC[C@H]2[C@@H](COC[C@H](O)CN2Cc2cc(F)ccc2F)O1)c1ccccc1
→ 1, -6, 5.4
O=C(C[C@@H]1CC[C@H]2[C@@H](COC[C@@H](O)CN2C(=O)Nc2ccc(Cl)cc2)O1)NCc1ccncn1
→ -11, -13, -3.1
C=CCN=C1NC(c2cccc(C(F)(F)F)c2)C(C(=O)OC)=C(C)N1Cc1ccccc1C(F)(F)F (stereo unspecified)
→ -44, -80, -16
COc1cccc(S(=O)(=O)Nc2ccc3c(c2)OC[C@@H](C)N(C(=O)Cc2cccnc2)C[C@H](C)[C@@H](OC)CN(C)C3=O)c1
→ 2, 1, 0.8
CC(C)NC(=O)N1CC[C@H]2[C@@H]1c1cc(Br)ccc1N(C)[C@H]2CO
→ 1, 21, 5.1
CCOC(=O)C1(C)CCN1C(=O)c1cc2ccccc2s1 (stereo unspecified)
→ 0, 3, -0.4
C[C@H](CO)N1C[C@H](C)[C@@H](CN(C)S(=O)(=O)c2ccc(Cl)cc2)Oc2ccc(NC(=O)Nc3ccc4c(c3)OCO4)cc2C1=O
→ 1, 3, 0.3

Going on with the list:
Order of results: Ecoli rRNA inh, Ecoli rRNA inh OD600, Ecoli rRNA inh RFP
Cc1ccccc1S(=O)(=O)N[C@@H]1CC[C@H](CCNS(=O)(=O)c2cccc(F)c2)O[C@@H]1CO
→ 0, 4, 1.2
COc1ccc2c3c([nH]c2c1)[C@@H](CO)N(C(=O)NC(C)C)CC31CCN(C(=O)NC2CCCC2)CC1
→ 0, -5, -3.0
CCOC(=O)N1CCN(C(c2ccnc3ccccc23)c2nnnn2-c2ccc3c(c2)OCCO3)CC1 (stereo unspecified)
→ 7, 9, 5.1
CCCN1C[C@H](C)[C@@H](OC)CN(C)C(=O)c2ccc(NC(=O)C3CCOCC3)cc2OC[C@@H]1C
→ 2, 0, -3.1
O=C(Cc1ccncc1)NCC[C@@H]1CC[C@H](NC(=O)Nc2ccc(F)cc2)[C@H](CO)O1
→ 0, 4, -2.6
C[C@@H]1CCCCO[C@H](CN(C)C(=O)Nc2cccc3ccccc23)[C@H](C)CN([C@@H](C)CO)C(=O)c2cc(NC(=O)NC3CCCCC3)ccc2O1
→ 7, 6, -0.4
CSc1ncnc2c1ncn2CCCNCc1ccco1
→ 1, 10, -0.8
Cc1ccccc1S(=O)(=O)N(C)C[C@@H]1OCc2ccccc2-c2ccccc2C(=O)N([C@@H](C)CO)C[C@@H]1C
→ -4, -9, 7.1
CC(C)C[C@H](NC(=O)C1CCCC1)C(=O)N1CCC[C@H]1C(=O)NCc1ccccc1
→ 20, 27, 6.0
C[C@H]1CN([C@@H](C)CO)C(=O)c2ccccc2-c2ccccc2CO[C@@H]1CN(C)C(=O)Nc1ccccc1C(F)(F)F
→ -3, 0, -0.4
N#C[C@H]1[C@H](c2ccccc2-c2cccc(F)c2)[C@@H](CO)N1C(=O)Cc1cccnc1
→ -5, -2, -1.1
CCC(=O)N[C@H]1C=C[C@@H](CC(=O)OC)O[C@@H]1CO
→ 3, 3, -2.0
C[C@@H]1CN([C@H](C)CO)C(=O)c2cc(NS(=O)(=O)c3ccccc3)ccc2O[C@@H]1CN(C)Cc1ccc(C(=O)O)cc1
→ 3, 1, -2.4
CN(C)CC#Cc1ccc([C@H]2[C@H]3CN(C(=O)Cc4ccccc4)CC(=O)N3[C@H]2CO)cc1
→ 4, -6, -0.5
O=S1(=O)C[C@H](N2CCN(CCO)CC2)[C@@H](COCc2ccccc2)N1
→ 17, 9, -0.3
C[C@@H]1CN([C@H](C)CO)C(=O)c2cc(C#CC3(O)CCCC3)cnc2O[C@@H]1CN(C)C(=O)Cc1ccncc1
→ 5, 8, -5.5
C[C@H](CO)N1C[C@H](C)[C@@H](CN(C)C(=O)NC2CCCCC2)Oc2ncc(Br)cc2C1=O
→ 1&-1, -1&6, -1.9&-0.6
Cc1noc(C)c1S(=O)(=O)Nc1ccc2c(c1)CC(=O)N([C@H](C)CO)C[C@@H](C)[C@H](CN(C)Cc1ccc3c(c1)OCO3)O2
→ -1, -7, -0.8
CCNC(=O)[C@@H]1[C@@H](CO)[C@@H]2Cn3c(ccc(-c4ccccc4)c3=O)[C@@H]2N1C(=O)C1CC1
→ 4, 9, -5.1
CCNC(=O)C[C@H]1CC[C@H](NC(=O)C2CCC2)[C@H](CO)O1
→ -3, 2, -0.8
CC(C)C(=O)Nc1ccc2c(c1)C(=O)N(C)[C@H]1CC[C@@H](CC(=O)N[C@H](C)c3ccccc3)O[C@@H]1CO2
→ 4, 8, 0.5
CO[C@@H]1CC[C@H]2CCOc3c(C#N)cccc3C(=O)N(C)C[C@@H](c3ccccc3)CC(=O)N(C)C[C@@H]1O2
→ 1, 16, 0.1
O=C(C[C@H]1CC[C@@H](NC(=O)Nc2ccc(F)cc2)[C@@H](CO)O1)NCCN1CCCC1
→ 5, 7, 1.1
CCCN(C)C[C@@H]1OCCCC[C@@H](C)Oc2ccc(NC(=O)Nc3ccc4c(c3)OCO4)cc2C(=O)N([C@H](C)CO)C[C@H]1C
→ -1, 7, -3.7
CC(C)NC(=O)N(C)C[C@@H]1Oc2ncc(C#Cc3ccncc3)cc2C(=O)N([C@H](C)CO)C[C@H]1C
→ 3, 12, 0.2
C[C@@H]1CN([C@@H](C)CO)C(=O)c2cc(NC(=O)Cc3ccccc3)ccc2O[C@@H](C)CCCCO[C@H]1CN(C)Cc1ccccc1
→ 2, 5, -2.6
CCC(=O)N1CCCCN2[C@H](CO)[C@@H](c3ccc(C#CCOC)cc3)[C@@H]2C1
→ 3, 1, -2.1
O=C(c1ccccc1F)N1CC(=O)N2[C@H](CO)[C@@H](c3ccc(C#Cc4ccccc4)cc3)[C@@H]2C1
→ -11, -30, 6.9
CN1C(=O)c2cc(NC(=O)c3ccccc3)ccc2OC[C@H]2O[C@@H](CC(=O)O)CC[C@@H]21
→ 3, 4, -0.3
CNC(=O)C[C@H]1CC[C@@H]2[C@@H](COc3ccc(NC(=O)Nc4cccc(F)c4)cc3C(=O)N2C)O1
→ -10, -11, 5.9

Additional structures
Order of results: Ecoli rRNA inh, Ecoli rRNA inh OD600, Ecoli rRNA inh RFP
Cc1noc(C)c1S(=O)(=O)Nc1ccc2c(c1)C(=O)N([C@@H](C)CO)C[C@H](C)[C@@H](CN(C)C)O2
→ 4, 1, 2.3
C[C@@H]1CN([C@H](C)CO)C(=O)c2cc(C3=CCCCC3)cnc2O[C@@H]1CN(C)C(=O)Nc1ccccc1
→ -2, 4, 0.1
O=C(C[C@H]1CC[C@H]2[C@@H](COC[C@@H](O)CN2C(=O)c2cnccn2)O1)NCc1ccc(Oc2ccccc2)cc1
→ 1&-1, 5&-3, -3.2&-1.3
C[C@@H]1CN([C@H](C)CO)C(=O)c2cccc(NC(=O)Nc3cccc4ccccc34)c2O[C@@H]1CN(C)Cc1ccc(-c2ccccc2)cc1
→ -6, 0, 2.4
C[C@@H]1CCCCO[C@@H](CN(C)S(=O)(=O)c2cn(C)cn2)[C@H](C)CN([C@H](C)CO)C(=O)c2cc(NC(=O)Nc3cccc4ccccc34)ccc2O1
→ -7, 3, 0.6
COC(=O)C1=C(C)N(Cc2ccccc2C(F)(F)F)C(=NCc2ccccc2)NC1CCc1ccccc1 (stereo unspecified)
→ -41, -76, -4.6
Cc1cccc(C(=O)Nc2ccc(C(=O)c3ccncc3)cc2)c1
→ -13, -7, 2.6
O=C(NC1CC1)c1[nH]c(C(F)(F)F)nc1-c1ccccc1
→ 9, 14, 2.1
COc1ccc(NC(=O)N(C)C[C@@H]2Oc3ccc(NC(=O)Nc4ccc5c(c4)OCO5)cc3C(=O)N([C@@H](C)CO)C[C@H]2C)cc1
→ 0, 2, 1.0
CCCNC(=O)N(C)C[C@@H]1Oc2ncc(-c3cccc(C#N)c3)cc2C(=O)N([C@H](C)CO)C[C@H]1C
→ 10, 20, -3.6
C[C@@H]1CCCCO[C@H](CN(C)S(=O)(=O)c2ccc(Cl)cc2)[C@@H](C)CN([C@@H](C)CO)C(=O)c2cc(NC(=O)Nc3ccccc3)ccc2O1
→ -3, -2, -0.6
COc1ccc(NC(=O)Nc2ccc3c(c2)C(=O)N([C@@H](C)CO)C[C@@H](C)[C@H](CN(C)C(=O)c2ccccc2)OCCCC[C@@H](C)O3)cc1
→ -4, 3, 1.8
C[C@H](CO)N1C[C@H](C)[C@@H](CN(C)C(=O)CCCN(C)C)OCCCC[C@H](C)Oc2ccc(NS(=O)(=O)c3ccccc3)cc2C1=O
→ 4, 3, -1.2
CCCC#Cc1ccc([C@H]2[C@@H](CO)N(C(C)=O)[C@H]2CNC(=O)C2CC2)cc1
→ -2, 0, -0.6
CN(C)C(=O)c1cccc(-c2ccc3c(c2)[C@@H]2[C@@H](CCN2C(=O)Cc2ccccc2)[C@H](CO)N3)c1
→ -5, 2, 1.4
Cc1cc(C)c(N2C(=O)CC(Sc3ccccc3N)C2=O)c(C)c1 (stereo unspecified)
→ -1, -1, 3.1
C[C@H]1CN([C@@H](C)CO)C(=O)c2cc(NC(=O)Nc3cccc4ccccc34)ccc2O[C@@H]1CN(C)C(=O)NC1CCCCC1
→ -2, -10, -0.9
CO[C@@H]1CN(C)C(=O)c2cc(NS(C)(=O)=O)ccc2OC[C@@H](C)N(C(=O)C2CCCCC2)C[C@@H]1C
→ -3, -4, 1.1
C[C@@H]1CN([C@H](C)CO)C(=O)c2cc(NS(=O)(=O)c3ccc(Cl)cc3)ccc2O[C@@H](C)CCCCO[C@@H]1CN(C)Cc1ccc(C(=O)O)cc1
→ -2, 4, -0.6

Retrieved one by one from the list above, four records:
Order of results: Ecoli rRNA inh, Ecoli rRNA inh OD600, Ecoli rRNA inh RFP
Cc1cc(C)c(N2C(=O)CC(Sc3ccccc3N)C2=O)c(C)c1 (stereo unspecified)
→ -1, -1, 3.1
C[C@H]1CN([C@@H](C)CO)C(=O)c2cc(NC(=O)Nc3cccc4ccccc34)ccc2O[C@@H]1CN(C)C(=O)NC1CCCCC1
→ -2, -10, -0.9
COc1ccc(NC(=O)Nc2ccc3c(c2)C(=O)N([C@@H](C)CO)C[C@@H](C)[C@H](CN(C)C(=O)c2ccccc2)OCCCC[C@@H](C)O3)cc1
→ -4, 3, 1.8
COc1ccc(NC(=O)N(C)C[C@@H]2Oc3ccc(NC(=O)Nc4ccc5c(c4)OCO5)cc3C(=O)N([C@@H](C)CO)C[C@H]2C)cc1
→ 0, 2, 1.0
